# GALR2 agonist – GALR2 receptor agonists, primary screen, cell-based. Galanin receptor type 2 (Homo sapiens), O43603. GALR2-expressing cells, agonist activation read-out. activation, %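 (tested at 5 µM)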. 140,000 compounds, 0.48% hits;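 active = above mean plus 3 SD of all compounds, about 5% in these data, not always enough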;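 also: 0% = vehicle buffer wells and 100% = reference agonist at full effect; tested in CHO reporter cells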
# Insulin prom inh – inhibitors of insulin promoter-driven GFP, primary screen, imaging, TRM-6 cells (human fetal islet line), eGFP reporter, cell count | reporter expression induced with tamoxifen | inhibition, % at 2 µM | 130,000 compounds, 0.9% hits;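 active = inhibition above the mean plus 3 SD, with well images judged a real hit on visual review, cut at about 60% in these data, passing the limit was not always enough; inconclusive = inhibition over the cutoff but images rejected on review; inactive = inhibition not above the cutoff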
# HSV replic up – enhancers of HSV replication in host cells, fold increase, host cell viability | maximum fold increase | 220,000 compounds, 0.005% hits | AID 1956, 2009 | HSV replication augmentation in cells;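 active = peak rise of 1.5-fold or more in the series; inconclusive = self-fluorescent or not available for retest; tested in PC3 cells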;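 also: first round at 10 µM; read as green reporter fluorescence; hits show the peak of a series up to 25 µM; 1 = signal of infected wells without compound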
# RGS16-Gao HTS – modulators of RGS16 binding to Galphao, primary screen, biochemical, human proteins, multiplexed bead flow cytometry. binding response (% of control), % at 10 µM. 220,000 compounds, 0.38% hits. AID 1441, 2008. bead-based flow cytometry RGS16-Galphao binding, fluorescence; actives lie on both sides;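 active = below 25% or above 175%, edge rows of some plates excepted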;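 also: Galphao activated by GDP with aluminum fluoride before binding; 100% = wells without compound and 0% = beads without RGS; some results beyond the cut were filed as inactive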
# PKD1 kinase inh – inhibitors of human PKD1 kinase, biochemical, fluorescence polarization; Serine/threonine-protein kinase D1 (Homo sapiens), Q15139; PKD1 kinase fluorescence polarization assay; inhibition, %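 (about 10 µM by stock and volumes)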; 200,000 compounds, 0.056% hits;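 active = inhibition of 50% or more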;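 also: controls were vehicle for no effect and a reference inhibitor for full effect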
# Insulin prom inh cell count – also measured in Insulin prom inh; calls as there; normalized cell count, %; measured here: cell count, toxicity; reference of the scale not given here;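 cells exposed to compound for 48 h; stained nuclei by imaging scaled within each plate; lower means fewer cells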
# HSV replic up primary fold – recorded beside HSV replic up, whose call it bears; fold increase; compound at 10 µM; measured here: primary screen fold increase 10 uM; tested in PC3 cells;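 GFP signal in the first replicate; 1 = infected wells without compound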
# An asterisk follows results filed as active; i = inactive; ? = inconclusive; . = no result given. Not a hit list; overall some 1.3% were active at least once.
# Each structure is followed by: GALR2 agonist, Insulin prom inh, Insulin prom inh cell count, HSV replic up, HSV replic up primary fold, RGS16-Gao HTS, PKD1 kinase inh
- COc1ccc(-c2cc(C(=O)NC(C(=O)O)C(C)C)c(C)o2)cc1OC (configuration not stated)
  -1.4, ., ., i, 0.85, 102, -4
- CCN(CC)CCN(Cc1cc2cc3c(cc2[nH]c1=O)OCO3)C(=S)NCc1ccco1
  ., 7, 180, i, 0.76, 100, -8
- COc1cc2[nH]c(=O)n(CCCCCC(=O)N3CC=C(c4ccccc4)CC3)c(=O)c2cc1OC
  -3.6, -14, 151, i, 0.81, 95, -1
- CCOC(=O)c1ccc2[nH]c(C)c(CCC(C)=O)c(=O)c2c1
  -1.6, 43, 152, i, 0.96, 86, 6
- CCCN(CCC)C(=O)CC(c1ccccc1)c1cc(C)ccc1O (configuration not stated)
  0.5, -22, 87, i, 0.94, 99, 0
- O=S(=O)(c1ccc2c(c1)OCCO2)N1CCC(n2nnc3cc(F)ccc32)CC1
  -0.5, -25, 174, i, 1, 105, 5
- COc1ccccc1NCC(=O)Nc1cc(S(=O)(=O)N2CCOCC2)ccc1N1CCOCC1
  ., 43, 167, i, 1, 99, 2
- Cc1ccc2c(c1)C=CC(C)(C)S2(=O)=O
  -1.8, 3, 109, i, 1, 99, -7
- COc1cccc(C2/C(=C(/O)c3ccccc3)C(=O)C(=O)N2Cc2ccco2)c1 (configuration not stated)
  ., ., ., i, 0.83, 101, .
- COc1ccc(C2CC(c3ccccc3)=NN2c2ccc(/C=N/NC(=O)c3ccncc3)cc2)cc1 (configuration not stated)
  17*, 35, 92, ?, ., 110, 3

# Profiles, quoted from the list. Order of screens: GALR2 agonist, Insulin prom inh, Insulin prom inh cell count, HSV replic up, HSV replic up primary fold, RGS16-Gao HTS, PKD1 kinase inh
# Cc1ccc2c(c1)C=CC(C)(C)S2(=O)=O across the screens: -1.8, 3, 109, i, 1, 99, -7
# CCOC(=O)c1ccc2[nH]c(C)c(CCC(C)=O)c(=O)c2c1 across the screens: -1.6, 43, 152, i, 0.96, 86, 6

# Going on with the list.
# Each structure is followed by: GALR2 agonist, Insulin prom inh, Insulin prom inh cell count, HSV replic up, HSV replic up primary fold, RGS16-Gao HTS, PKD1 kinase inh
- Cc1cc(NC(=S)NC(=O)c2ccccc2)ccc1-c1cc2ccccc2oc1=O
  -0.7, -26, 72, i, 0.64, 108, -1
- COc1ccc(S(=O)(=O)N(CCc2ccccc2)CC(N)=O)cc1
  ., ., ., i, 0.95, 81, -6
- COc1ccc(-c2[nH]ncc2CN2CCC(N3CCSCC3)CC2)cc1F
  ., -20, 120, i, 0.92, 100, -2
- CC1(c2ccc(OC(F)F)cc2)NC(=O)N(CC(=O)Nc2cccc(S(N)(=O)=O)c2)C1=O (configuration not stated)
  ., ., ., i, 0.95, 96, .
- CSC(=S)N/N=C/c1ccccc1
  ., 20, 82, i, 0.71, 108, -3
- CCN(CC)S(=O)(=O)c1ccc(NC(=O)CSc2cccc[n+]2[O-])cc1
  -1.6, -35, 131, i, 1.1, 106, -1
- O=C(O)c1ccccc1NS(=O)(=O)c1cccc2cccnc12
  -1.2, -19, 117, i, 0.9, 95, 6
- CCCCOCCCNC(=O)c1ccc([N+](=O)[O-])c(C)c1
  -1.0, -7, 99, i, 0.94, 101, -4
- CCc1ccc(NC(=O)CC2C(=O)NCCN2C(=S)Nc2ccccc2)cc1 (configuration not stated)
  -0.5, -10, 116, i, 0.73, 104, -15
- COc1cccc(CN=c2c([N+](=O)[O-])nn(-c3ccccc3C)n2O)c1
  ., ., ., i, 0.91, 98, -8
- Cc1ccc(-c2noc(CSc3nc(N)cc(N)n3)n2)cc1
  -3.9, ., ., i, 0.84, 101, -12
- CN(C)S(=O)(=O)c1cccc(NC(=O)c2cc3ccccc3o2)c1
  -0.6, -24, 125, i, 0.84, 100, -8
- O=C(NC1=NCCS1)C12CC3CC(C1)CC(C(=O)NC1=NCCS1)(C3)C2
  -1.6, -6, 135, i, 1, 95, 0
- CCCS(=O)(=O)N1CCN(Cc2ccco2)CC1
  -1.7, 39, 101, i, 0.91, 110, -1
- CCN(CC)c1ccc(NC(=O)COC(=O)CCC(=O)c2ccc(F)cc2)cc1
  -3.8, -8, 114, i, 1.1, 96, -9
- COc1ccc(NC(=O)CSc2nnc(-c3ccccc3Cl)n2Cc2ccco2)c(OC)c1
  -1.8, 27, 113, i, 0.95, 98, 2
- O=C1NC(=S)S/C1=C\c1coc2ccccc2c1=O
  ., 23, 102, i, 1.1, 99, -5
- COc1ccc2c(c1)S(=O)(=O)c1ccccc1N2
  ., ., ., i, 0.98, 92, .
- COc1ccc(CONS(=O)(=O)c2ccc(NC(C)=O)cc2)cc1Cl
  -0.1, -13, 107, i, 0.89, 106, 5
- CCOc1ccc(CCNC(=O)Cn2ccc3ccccc3c2=O)cc1OCC
  ., ., ., i, 0.82, 101, 6

# For reference, part of the list above.
# Each structure is followed by: GALR2 agonist, Insulin prom inh, Insulin prom inh cell count, HSV replic up, HSV replic up primary fold, RGS16-Gao HTS, PKD1 kinase inh
- CSC(=S)N/N=C/c1ccccc1
  ., 20, 82, i, 0.71, 108, -3
- CCN(CC)S(=O)(=O)c1ccc(NC(=O)CSc2cccc[n+]2[O-])cc1
  -1.6, -35, 131, i, 1.1, 106, -1
- O=C(O)c1ccccc1NS(=O)(=O)c1cccc2cccnc12
  -1.2, -19, 117, i, 0.9, 95, 6
- CCCCOCCCNC(=O)c1ccc([N+](=O)[O-])c(C)c1
  -1.0, -7, 99, i, 0.94, 101, -4
- CCc1ccc(NC(=O)CC2C(=O)NCCN2C(=S)Nc2ccccc2)cc1 (configuration not stated)
  -0.5, -10, 116, i, 0.73, 104, -15
- COc1cccc(CN=c2c([N+](=O)[O-])nn(-c3ccccc3C)n2O)c1
  ., ., ., i, 0.91, 98, -8
- Cc1ccc(-c2noc(CSc3nc(N)cc(N)n3)n2)cc1
  -3.9, ., ., i, 0.84, 101, -12
- CN(C)S(=O)(=O)c1cccc(NC(=O)c2cc3ccccc3o2)c1
  -0.6, -24, 125, i, 0.84, 100, -8
- O=C(NC1=NCCS1)C12CC3CC(C1)CC(C(=O)NC1=NCCS1)(C3)C2
  -1.6, -6, 135, i, 1, 95, 0
- CCCS(=O)(=O)N1CCN(Cc2ccco2)CC1
  -1.7, 39, 101, i, 0.91, 110, -1
- CCN(CC)c1ccc(NC(=O)COC(=O)CCC(=O)c2ccc(F)cc2)cc1
  -3.8, -8, 114, i, 1.1, 96, -9
- COc1ccc(NC(=O)CSc2nnc(-c3ccccc3Cl)n2Cc2ccco2)c(OC)c1
  -1.8, 27, 113, i, 0.95, 98, 2
- O=C1NC(=S)S/C1=C\c1coc2ccccc2c1=O
  ., 23, 102, i, 1.1, 99, -5
- COc1ccc2c(c1)S(=O)(=O)c1ccccc1N2
  ., ., ., i, 0.98, 92, .
- COc1ccc(CONS(=O)(=O)c2ccc(NC(C)=O)cc2)cc1Cl
  -0.1, -13, 107, i, 0.89, 106, 5
- CCOc1ccc(CCNC(=O)Cn2ccc3ccccc3c2=O)cc1OCC
  ., ., ., i, 0.82, 101, 6

# Following part
# Each structure is followed by: GALR2 agonist, Insulin prom inh, Insulin prom inh cell count, HSV replic up, HSV replic up primary fold, RGS16-Gao HTS, PKD1 kinase inh
- COc1cc(C2NC(=O)NC(C)=C2C(=O)OC(C)C)ccc1OC(=O)c1ccco1 (configuration not stated)
  -0.3, -157, 115, i, 0.98, 111, 6
- Cc1cccc(-n2cnc(C(=O)Nc3cccnc3)c2)n1
  -1.4, -30, 72, i, 0.97, 100, -8
- O=C(Nc1ncn[nH]1)c1cc(S(=O)(=O)Nc2cccc(C(F)(F)F)c2)ccc1Cl
  ., ., ., i, 0.98, 105, 1
- Cn1cc(S(=O)(=O)CC(=O)N2CCc3ccccc32)c2ccccc21
  -3.1, ., ., i, 0.78, 99, -5
- COc1cccc(-n2c(Cc3cc(=O)[nH]c(=O)[nH]3)nnc2SCC(=O)NC2CCCC2)c1
  -1.4, ., ., i, 1.1, 103, 6
- Cc1csc(NC(=O)CS(=O)(=O)Cc2ccccc2)n1
  ., ., ., i, 0.97, 99, 1

# High-throughput results deposited in PubChem BioAssay by several laboratories.
